ClpP mod: qHTS Assay for Activators of ClpP; ATP-dependent Clp protease proteolytic subunit (Bacillus subtilis (strain 168)), P80244; purified B. subtilis ClpP, FRET peptide cleavage, 20 min; Potency, µM (highest dose often 57.5 µM), without a hit: at the top dose activity change, negative = active; 340,000 compounds, 1.9% hits; active = well fitted falling curve with a large enough effect; inconclusive = small, poorly fitted or top-dose-only effect; inactive = no such curve, though single readings can be large or run the other way; also: potency is read from the fitted curve at half-maximal effect; the source files actives as falling curves though it sought activators and does not explain the sign; nearly all actives have a fitted effect of over 65% in size; many hits overshoot -100%
Target sequence (P80244 whole entry, looked up): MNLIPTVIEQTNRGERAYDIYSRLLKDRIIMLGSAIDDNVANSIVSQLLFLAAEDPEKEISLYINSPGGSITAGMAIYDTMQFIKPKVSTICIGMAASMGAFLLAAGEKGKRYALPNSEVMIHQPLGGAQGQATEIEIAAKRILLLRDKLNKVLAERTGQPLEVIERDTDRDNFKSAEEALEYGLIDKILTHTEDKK
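FRET quenching reversal measured ClpP activation: 10 microg/mL B. subtilis ClpP at pH 8 with the FRET-FV decapeptide, read at 430 nm after 320 nm excitation. The 20-min minus 0-min signal was scaled between DMSO/no-enzyme wells and ADEP (5.8 microM final).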
gsp antagonist: antagonists of gsp mutant (McCune-Albright syndrome). gsp-mutant cells, cAMP HTRF, 30 min; control for the full effect not named in the record. Potency, µM (titrated, usually from 76.9 µM), for inactives: top-dose activity change, negative = inhibition, usual class: inhibitors. 340,000 compounds, 0.4% hits; active = falling curve of any shape with a large fitted effect; inconclusive = falling curve, mostly with a smaller effect; inactive = flat or rising curve; cell line not stated here;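 also: intracellular cAMP measured with PDE inhibitor Ro 20-1724 present during compound exposure; potency is read from the fitted curve at half-maximal effect; % is scaled to controls: 0 for no effect and ±100 for the full control effect; nearly all actives have a fitted effect of over 65% in size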
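HTRF cAMP measurement after 30 min RT detection following 30 min, 37C compound treatment alongside […] (added as 300 uM solution) in G418-selected cells seeded at 2000/well and grown 16–24 h.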
Menin MLL FP FL: inhibitors of human menin-MLL interaction, wild-type MLL peptide; 290,000 tested, under 10 active; FP activity change, % at 61.4 µM; Fluorescence polarization, fluorescein-MLL peptide displacement from menin; inconclusive = falling polarisation curve, or a change in total fluorescence; inactive = total fluorescence flat and polarisation flat or rising; no compound was filed as active; the % refers to the polarisation; negative = inhibition;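 also: % of control where 0% means no effect; inhibitors lower the polarisation; unlabelled MLL peptide was the positive control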
TRPV1 PAM: potentiators of human vanilloid receptor 1 (TRPV1); 320,000 compounds, 0.02% hits; Q8NER1; potentiation, % at 8.33 µM; TRPV1-expressing cells, Fluo-8 calcium influx, capsaicin EC20 potentiation; host cell line not named in the record; control for the full effect not named in the record; active means potentiation above 80%; inconclusive means 30% to 80%; inactive means below 30%; also: 0% is about no effect
Target sequence (Q8NER1 whole entry, looked up): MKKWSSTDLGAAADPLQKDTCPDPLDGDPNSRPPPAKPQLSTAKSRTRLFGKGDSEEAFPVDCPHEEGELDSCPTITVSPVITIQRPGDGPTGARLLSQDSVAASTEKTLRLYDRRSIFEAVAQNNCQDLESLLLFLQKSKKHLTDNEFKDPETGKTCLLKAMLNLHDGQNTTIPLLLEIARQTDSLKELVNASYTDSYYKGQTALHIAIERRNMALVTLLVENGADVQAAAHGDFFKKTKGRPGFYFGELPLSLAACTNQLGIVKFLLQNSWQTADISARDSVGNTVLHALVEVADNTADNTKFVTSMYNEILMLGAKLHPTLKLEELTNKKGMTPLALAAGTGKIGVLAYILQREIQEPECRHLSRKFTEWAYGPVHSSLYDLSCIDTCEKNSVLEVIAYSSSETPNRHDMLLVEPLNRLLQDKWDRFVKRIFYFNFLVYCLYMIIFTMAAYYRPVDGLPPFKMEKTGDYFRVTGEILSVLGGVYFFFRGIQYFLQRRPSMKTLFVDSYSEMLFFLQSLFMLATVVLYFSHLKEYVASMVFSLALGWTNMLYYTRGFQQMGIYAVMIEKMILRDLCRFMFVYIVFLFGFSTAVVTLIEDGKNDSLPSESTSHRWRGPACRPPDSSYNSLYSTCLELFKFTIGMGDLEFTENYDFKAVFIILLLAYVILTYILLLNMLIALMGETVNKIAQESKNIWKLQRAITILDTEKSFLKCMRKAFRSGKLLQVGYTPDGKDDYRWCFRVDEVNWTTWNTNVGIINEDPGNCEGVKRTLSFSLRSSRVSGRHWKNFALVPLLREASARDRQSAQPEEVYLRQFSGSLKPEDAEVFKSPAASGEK
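TRPV1-expressing cells were cultured overnight at 35.5C and loaded with Fluo-8 calcium dye for 40 to 90 min at room temperature. After a 10 s baseline, compound was added and calcium influx was read kinetically for 3 min (ex 480/em 520 nm).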
Sfp inh: Sfp phosphopantetheinyl transferase inhibition; Q9F4F7; Biochemical Sfp PPTase activity, qHTS; Potency, µM, for the others: max response, negative = inhibition, most hits filed as inhibitors; 310,000 compounds, 3.5% hits; AID 1490; active = well fitted inhibition curve with a large enough effect; inconclusive = small, poorly fitted or top-dose-only effect, or another doubt; inactive = no such curve, though single readings can be large or run the other way;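 also: the enzyme is Sfp with the accession as filed and its product quenches rhodamine fluorescence; potency is read from the fitted curve at half-maximal effect; 0% = enzyme reaction without inhibitor and -100% = no enzyme wells; top concentration of the series not given in the record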
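Buffer: 50 mM Hepes-Na pH 7.6, 10 mM MgCl2, 0.01% Nonidet P-40, 0.01% BSA. Enzyme 15 nM, pre-exposed to compound 15 min; substrates then added and fluorescence change tracked over 30 min.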
D2 PAM: potentiates the human D2 dopamine receptor allosterically; potentiation, % (test concentration not listed); DiscoveRx D2 beta-arrestin cells, luminescence, 90 min; 100% = 57 uM dopamine signal; 360,000 compounds, 0.23% hits; P14416; AID 624464; active = potentiation of 50% or more; inconclusive = 30% to 50%; inactive = 30% or less;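 also: compound concentration not given in the record; tested on top of an EC20 dose of dopamine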
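D2 cells co-treated with compound plus 50 nM dopamine (EC20) for 90 min at 37 deg C to detect potentiation. Beta-arrestin recruitment was read as enzyme-fragment luminescence after 1 h at ambient temperature. Full response was set by 57 uM dopamine.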
gsp agonist: gsp mutant agonism; gsp mutant cells, cAMP HTRF, 30 min; control for the full effect not named in the record; Potency, µM (highest dose often 76.9 µM), for inactives: top-dose activation (cAMP increase), actives largely listed as activators; 340,000 compounds, 0.13% hits; active = well fitted activation curve with a large enough effect; inconclusive = small, poorly fitted or top-dose-only effect, or another doubt; inactive = no such curve, though single readings can be large or run the other way; cell line not stated here;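 also: phosphodiesterase inhibitor Ro 20-1724 added with compounds to block cAMP breakdown; potency is read from the fitted curve at half-maximal effect; nearly all actives have a fitted effect of over 60% in size; about a fifth of the inactives were tested at one dose only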
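Cells in DMEM/10% FBS with G418 were pretreated with compounds in DMSO plus […] (300 uM stock) for 30 min at 37C. cAMP was measured by HTRF (cAMP-d2 plus anti-cAMP antibody-K) after 30 min at room temperature.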
Starred values were filed as active, the others as inactive; ? = inconclusive; · = not tested or not shown; & = joins results of further samples; [ ] = dose if it differs, or a comment.

#	mol	ClpP mod	gsp antagonist	Menin MLL FP FL	TRPV1 PAM	Sfp inh	D2 PAM	gsp agonist
1	Cn1c(-c2ccccc2)cnc1NCc1ccc(F)cc1	-15.5%	-0.2%	-4.7	0.9	-31.8%	-56.9	-30.9%[inhibitor]
2	CC(=O)c1cc(C(=O)NC2CCCc3c2cnn3-c2cc(C)cc(C)c2)[nH]n1 (stereo not given)	31.6µM*	4.8%	·	-4.8	7.8%	-6.7	17.6%[15.4 µM]
3	COCCN=c1scc(-c2cc(OC)c(OC)c(OC)c2)n1/N=C/c1c(C)[nH]c2ccccc12	-2.2%	?	5.5	9.7	-2.9%	4.8	-0.6%
4	Cc1ccc2c(c1)sc1nncn12	-1.6%	·	·	·	·	-3.6	-26.2%
5	CC(=O)Nc1ccccc1-c1ccccc1[N+](=O)[O-]	·	11.1%	·	·	·	-1.2	-0.7%
6	CC(C)(C)OC(=O)N1CCC(C(=O)Nc2ccc(C(=O)N3CCCCC3)cc2)CC1	-0.2%	9.7%	·	·	·	-8.6	·
7	N#Cc1c(-c2ccc(Cl)cc2)c2c([nH]c1=S)CCCC2	·	-6.3%	26.4	5.5	-5.9%	-13.8	13.9%[15.4 µM]
8	O=C(CCNC(=O)C1CCN(S(=O)(=O)c2ccccc2)CC1)Nc1ccccc1	-1.2%	9.6%	·	?	10.7%	-11.7	1.3%
9	CCC(C)N(C(=O)c1csnn1)C(C(=O)NC1CCCC1)c1ccccc1F (stereo not given)	·	3.9%	-1.1	2.9	1.9%	-3.6	2.3%
10	CCOc1ccc(Cn2nnc(C(=O)NCCc3ccc(Cl)cc3)c2N)cc1	-0.3%	2.8%	2.7	0.0	7.4%	-4.9	1.7%
11	CCOC(=O)c1cc(NC(=O)CCC(=O)O)ccc1N1CCCCC1	·	-5.0%	-22.0	-3.7	-1.3%	-0.2	20.5%[15.4 µM]
12	CCOC(=O)C1C(=O)C=C(/C=C/c2ccc(N(C)C)cc2)CC1c1ccccc1 (stereo not given)	3.7%	16.9%	?	-3.5	8.2%	4.1	?
13	CCCCn1c(SCC(=O)Nc2cc(C)on2)nc2c1c(=O)n(C)c(=O)n2C	-1.4%	5.2%	0.8	-1.8	14.9%	-1.6	21.4%
14	CC1CCCC(C)N1C(=O)CSc1nnc(CSc2ncccn2)n1C (stereo not given)	0.7%	4.6%	-0.7	18.3	4.0%	-6.7	2.8%
15	CCOC(=O)C1CCN(C(=O)C(CC)c2ccccc2)CC1 (stereo not given)	0.8%	8.9%	-7.3	-1.7	-7.4%	0.8	-3.1%
16	COc1cccc(Cn2c(NCC(C)C)nc3c2c(=O)n(C)c(=O)n3C)c1	-1.7%	5.9%	3.1	14.4	4.8%	5.5	6.9%
17	O=C(Nc1ccccc1N1CCN(C(=O)c2ccc(Cl)cc2)CC1)c1cc(Br)ccc1Cl	-3.2%	-5.3%	0.7	-10.1	-2.4%	-3.2	-36.0%
18	CCOC(=O)CCCCCC(=O)Nc1ccc2c(c1)C(=O)N([C@@H](C)CO)C[C@@H](C)[C@H](CN(C)C(=O)c1ccncc1)OCCCC[C@H](C)O2	0.3%	·	·	·	·	-3.6	-39.1%[inhibitor]
19	CSc1nc(-c2ccc(Cl)cc2)c(C#N)c(=O)n1C	-1.4%	-32.3%	-5.2	-6.0	16.5%	-4.2	30.7%[15.4 µM]
20	CCOc1ccc(C(=O)NCc2ccncc2)cc1	-18.5%	5.1%	1.6	-10.3	-2.1%	-8.2	-55.7%[inhibitor]
21	O=[N+]([O-])c1cc(Br)c(OCc2nnc(-c3ccccc3)o2)c(Br)c1	1.2%	-9.5%	0.7	-7.4	5.0%	0.6	-16.1%
22	COc1cccc2c(O)c(-c3ccccc3)c(=O)[nH]c12	-4.7%	9.9%	·	·	·	-5.6	-3.5%
23	COC(=O)CCC(=O)OC1(C)C(=O)C=C2C=C(c3ccsc3)OC=C2C1=O (stereo not given)	-6.9%	-4.2%	1.3	·	11.2%	3.7	·
24	O=C(O)c1cccc(NC(=S)NC(NC(=O)c2ccco2)C(Cl)(Cl)Cl)c1 (stereo not given)	·	2.8%	-2.1	-7.5	20.7%	-4.9	9.3%[15.4 µM]
25	O=C(NCc1cccs1)C1CC(c2ccccc2O)=NO1 (stereo not given)	-5.5%	13.9%	0.1	0.9	5.2%	-8.4	3.4%
26	Cn1c(SCC(=O)N/N=C/c2ccncc2)nc2ccccc21	-1.0%	-0.8%	0.3	2.3	-1.3%	-0.5	-0.8%[15.4 µM]
27	N#Cc1ccc(COC(=O)c2cccnc2Cl)cc1	·	-9.7%	·	-0.5	19.5%	-5.1	0.0%[15.4 µM]
28	N#Cc1c(N)nc(SCC(=O)NCCc2ccccc2)c(C#N)c1-c1cccs1	?	-0.2%	-2.1	1.4	1.1%	-1.2	?
29	O=C(CCC(=O)Nc1ccc(Br)cc1)N/N=C/c1ccccc1F	0.4%	-11.3%	6.5	15.8	-10.7%	-5.5	-15.4%[15.4 µM]
30	CCCCN(CCCC)C(=O)CSc1nnc(-c2cc(OC)c(OC)c(OC)c2)o1	-1.5%	-17.0%	11.8	5.5	12.2%	-8.1	-0.9%
31	O=C(CNC(=O)c1ccc(Cl)cc1)NCc1ccccn1	-1.9%	6.4%	·	-0.9	·	0.1	0.0%
32	Cc1ccc(N2C(=O)Nc3ccccc3C2(O)C(=O)N2CCN(c3ccccn3)CC2)cc1C (stereo not given)	2.3%	?	1.2	24.0	15.5%	-23.8	5.3%[15.4 µM]
33	CSCCC(NC(=O)COc1ccccc1)C(=O)N(C)Cc1cccc(F)c1 (stereo not given)	1.8%	-3.1%	·	-51.9	·	3.4	1.5%
34	COCCNC(=O)Cn1nc(-c2ccccc2)c2ccccc2c1=O	-2.1%&-1.0%	-3.5%	-0.1	6.4	6.7%	-15.2	-45.8%[inhibitor]
35	CSc1nc(C)cc(SCC(=O)Nc2ccccc2)n1	1.3%	?	4.5	1.3	-8.6%	-13.4	31.6µM*
36	Cc1nc(=O)c(-c2ccccc2)c(C)n1-c1cccc(/C=C/C(=O)O)c1	-2.8%	5.0%	-7.5	29.8	9.2%	-12.5	-34.4%
37	NS(=O)(=O)c1cccc(NC(=O)CSc2nnc(-c3ccncc3)n2C2CC2)c1	-6.8%	5.5%	·	·	·	-4.0	19.9%
38	COc1ccc(Cl)cc1S(=O)(=O)Nc1ccc(Cl)cn1	-1.3%	7.1%	-3.4	-0.6	14.2%	-10.3	22.3%
39	CCOC(=O)c1c(C)[nH]c(C)c1C(=O)COC(=O)c1ccc(OC)c(OC)c1	·	-3.6%	-1.7	8.1	-4.8%	1.0	15.2%
40	C[n+]1cn(CC(O)COCc2ccccc2)c2ccccc21 (stereo not given)	-1.4%	5.0%	-5.5	4.5	-13.2%	-14.2	-41.4%[inhibitor]
41	CN(C(=O)COC(=O)c1ccc(Br)c(S(=O)(=O)N2CCOCC2)c1)C1CCCCC1	-20.5%	-16.2%	·	·	·	-1.0	-4.6%[15.4 µM]
42	CC(CCc1ccccc1)NC(=O)CCCCCNc1nc(=S)[nH]c2ccccc12 (stereo not given)	·	·	0.2	12.3	17.3%	·	·
43	CC(C)C1C(C#N)=C(N)Oc2n[nH]c(C(C)(C)C)c21 (stereo not given)	-2.7%	-22.4%	0.4	10.0	0.8%	-4.0	-0.7%
44	COCc1c(C(=O)N/N=C/c2ccco2)nnn1-c1nonc1N	·	14.3%	-5.9	-1.0	8.4%	-7.0	-0.1%[15.4 µM]
45	O=C1C=Cc2ccccc2/C1=C/c1[nH]c(=O)[nH]c1O	3.6%	-0.6%	?	-8.6	-18.1%	?	-30.6%
46	O=C(Oc1cccc2cccnc12)c1ccc(Br)o1	-1.7%	9.5%	4.1	0.1	-16.1%	-0.1	9.7%
47	CCOC(=O)N1CCC(N2CCN(S(=O)(=O)c3ccc(NC(C)=O)cc3)CC2)CC1	0.4%	-2.8%	-0.6	-7.5	?	-8.9	-6.2%
48	COC(=O)c1c(N(S(C)(=O)=O)S(C)(=O)=O)sc2c1CCN(c1ncc(C(F)(F)F)cc1Cl)C2	-19.3%	4.2%	?	-7.2	56.2µM*	-6.8	-10.1%
49	O=C(NCc1ccccc1)N1CCC(CO)(CCc2ccccc2)CC1	·	2.7%	-7.5	-5.4	9.6%	-3.5	-13.3%
50	COc1ccc2c(c1)c(CC(=O)Nc1cc(C)ccc1C)c(C)n2C(=O)c1ccc(Cl)cc1	-4.7%	-5.4%	6.3	8.1	6.2%	10.1	?
51	Cc1cc(=O)[nH]c(NC(=O)Cc2ccccc2)n1	-7.6%	-0.4%	·	·	·	-0.7	-7.6%
52	CC(C)CC(N=C1NC(C)(C)Cc2ccccc21)C(=O)O (stereo not given)	-2.6%	10.1%	2.4	3.3	-28.0%	8.5	7.8%
53	CCOC(=O)c1ccc(NC(=S)P(=O)(c2ccccc2)c2ccccc2)cc1	0.3%	·	·	·	·	-9.6	-30.4%[inhibitor]
54	Fc1cccc(Nc2ncnc3sccc23)c1	-3.7%	-12.7%	-9.0	-36.8	6.2%	-17.6	?
55	CCOC(=O)c1nnn(-c2nonc2N)c1CNC(C)C	1.0%	4.2%	5.0	6.6	-4.5%	6.0	-30.7%[inhibitor]
56	Cc1cc(S(=O)(=O)N2CCCCC2)ccc1OCC(=O)N1CCCC1	1.1%	-6.5%	0.0	-7.2	0.4%	-20.0	11.8%
57	Cc1nnc(SCC(=O)Nc2cc(S(=O)(=O)N3CCCC3)ccc2Cl)n1C1CC1	-2.1%	-0.9%	·	2.5	·	-0.5	?
58	Cc1ccc(CSC2=NCCN2C(=O)c2ccc(S(=O)(=O)N(C)C)cc2)cc1	-1.3%	-12.3%	-4.5	-18.7	12.6%	-6.7	-73.8%[inhibitor]
59	ON=C1CCC2CCCCC2C1 (stereo not given)	-1.3%	·	·	·	·	-3.3	16.3%

Bioassay records from PubChem BioAssay.
